TRPML1 ag = qHTS for Agonists of the Human Mucolipin Transient Receptor Potential 1 (TRPML1) | Mucolipin-1 (Homo sapiens), Q9GZU1 | TRPML1-expressing cells, Ca2+ dye fluorescence, FDSS; host cell line not named in the record; reference of the full effect not given here | 410,000 compounds, 0.12% hits | activation, % (test concentration not listed) | AID 624414, 2012; in the data active = activation above about 50%; inconclusive = about 30% to 50%; inactive = below about 30%; further: 0% is about no effect; the text of the record puts the active cut at 80%
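In this qHTS format, compounds were pin-transferred onto Ca8-dye-loaded TRPML1-DL cells induced with Tet overnight, and intracellular Ca2+ fluorescence was recorded kinetically for 110 s after a 10 s baseline. A subsequent 4uM final 54-4 (EC80) addition followed by a second 110 s read served as the antagonist phase.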
TRPML1 inh = qHTS for Inhibitors of the Human Mucolipin Transient Receptor Potential 1 (TRPML1). Mucolipin-1 (Homo sapiens), Q9GZU1. TRPML1-inducible cells, Ca2+ dye fluorescence, FDSS; active compounds read low; inhibition of EC80 agonist-evoked calcium signal. activity change, negative = inhibition, % (test concentration not listed). 390,000 compounds, 0.02% hits. AID 624415, 2012; in the data active means activity change below about -50%; inconclusive means about -30% to -50%; inactive means above about -30%;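 further: stimulus is agonist 54-4 at its EC80 concentration; on the % scale 0 is the no-effect control and ±100 the full control effect; compound concentration not given in the record; the text of the record puts the active cut at -80%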
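TRPML1-DL cells, Tet-induced overnight (~16 h, 37 °C) at 1,500 cells/well, were loaded with Ca8 no-wash dye plus quencher for 45-90 min at room temperature. Compounds were pinned during FDSS kinetic reading; agonist 54-4 at EC80 (4 uM final) then added.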
D2 agonist = Beta-Arrestin HTS for Positive Allosteric Modulators of the Human D2 Dopamine Receptor: Agonists. D(2) dopamine receptor (Homo sapiens), P14416. DiscoveRx PathHunter D2 beta-arrestin, luminescence, 90 min; 100% = 57 uM dopamine signal. activation, % (no concentration beside the values). 360,000 compounds, 0.084% hits; in the data active = activation above about 40%; inconclusive = about 15% to 40%; inactive = below about 15%; further: compound concentration not given in the record; the text of the record calls up to 30% inactive
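Agonist mode: compounds alone added to overnight-plated D2 PathHunter cells for 90 min at 37 C, with 57 uM final dopamine (EC100) defining full response. Beta-arrestin recruitment detected by chemiluminescent reagent, read after 1 h at ambient temperature.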
Six1-Eya2 inh = qHTS Assay for Inhibitors of the Six1/Eya2 Interaction. Homeobox protein SIX1 (Homo sapiens) + Protein phosphatase EYA2 (Homo sapiens), …. AlphaScreen GST-Six1/His-Eya2 binding, biochemical; active compounds read low; control for the full effect not named in the record. activity change, % (no concentration beside the values). 360,000 compounds, 0.56% hits; in the data active = activity change below about -65%; inconclusive = about -30% to -65%; inactive = above about -30%; further: on the % scale 0 is the no-effect control and ±100 the full control effect
Target sequence (O00167 whole entry, looked up): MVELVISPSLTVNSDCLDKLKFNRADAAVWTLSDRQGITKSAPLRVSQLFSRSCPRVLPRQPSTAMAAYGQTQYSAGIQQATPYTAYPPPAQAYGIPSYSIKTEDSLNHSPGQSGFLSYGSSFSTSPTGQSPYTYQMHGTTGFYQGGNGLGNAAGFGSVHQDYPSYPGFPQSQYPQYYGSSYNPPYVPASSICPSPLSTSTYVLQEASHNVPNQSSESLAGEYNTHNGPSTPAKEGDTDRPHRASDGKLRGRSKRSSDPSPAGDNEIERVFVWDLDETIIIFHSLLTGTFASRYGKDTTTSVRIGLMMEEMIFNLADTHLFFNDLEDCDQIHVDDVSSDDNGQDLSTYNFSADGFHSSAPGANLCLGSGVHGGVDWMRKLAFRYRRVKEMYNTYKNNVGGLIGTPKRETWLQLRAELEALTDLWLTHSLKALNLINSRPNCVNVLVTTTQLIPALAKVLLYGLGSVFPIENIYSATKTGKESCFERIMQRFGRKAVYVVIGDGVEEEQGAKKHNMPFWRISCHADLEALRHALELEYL
Target sequence (Q15475 whole entry, looked up): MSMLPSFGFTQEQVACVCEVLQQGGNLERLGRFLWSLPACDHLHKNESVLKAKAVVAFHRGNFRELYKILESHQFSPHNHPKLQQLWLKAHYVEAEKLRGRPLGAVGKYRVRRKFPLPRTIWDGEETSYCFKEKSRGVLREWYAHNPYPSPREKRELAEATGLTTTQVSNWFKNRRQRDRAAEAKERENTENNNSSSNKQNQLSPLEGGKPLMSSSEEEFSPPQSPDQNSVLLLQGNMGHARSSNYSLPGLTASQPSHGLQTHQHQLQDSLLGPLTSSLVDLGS
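Six1/Eya2 binding was read as AlphaScreen signal after compounds were pinned into GST-Six1 plus His-tagged Eya2 (5X stock 250/500 nM) in pH 8.0 Tris/NaCl/TCEP buffer, beads added, then incubated 1 h, 37 C, dark.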
PINK1 expr mod = A Quantitative High throughput Screen to Identify Chemical Modulators of PINK1 Expression; Potency, µM (highest dose often 76.6 µM), for inactives: at the top dose activation (PINK1 increase), hits mostly activators; 410,000 compounds, 0.2% hits; AID 624263, 2012; PINK1 immunofluorescence, high-content cytometry, 24 h; active = well fitted activation curve with a large enough effect; inconclusive = small, poorly fitted or top-dose-only effect; inactive = flat fitted curve, though single readings scatter; cell line not stated here;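 further: potency means the concentration at half of the fitted maximal effect; % of control where 0% means no effect; nearly all actives have a fitted effect of over 65% in size; a mitochondrial uncoupler was the plate control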
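Compound titrations (5 concentrations, 24 h) on a stable cell line; DMSO and CCCP controls. Endpoint: fixed-cell PINK1 immunofluorescence with mitochondrial, cell and nuclear markers, scanned by microplate cytometer.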
D2 potentiator = Beta-Arrestin HTS for Positive Allosteric Modulators of the Human D2 Dopamine Receptor: Potentiators | D(2) dopamine receptor (Homo sapiens), P14416 | DiscoveRx D2 beta-arrestin cells, luminescence, 90 min; 100% = 57 uM dopamine signal | potentiation, % (test concentration not listed) | 360,000 compounds, 0.23% hits | AID 624464, 2012; active = potentiation of 50% or more; inconclusive = 30% to 50%; inactive = 30% or less;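 further: compound concentration not given in the record; tested on top of an EC20 dose of dopamine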
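PathHunter beta-arrestin assay in DiscoveRx D2 cells. Compounds were added with an EC20 of dopamine (50 nM final) for 90 min at 37 deg C. Luminescence was read 1 h after detection reagent, with 57 uM dopamine as the EC100 control.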
* marks the source's active call; other numbers are inactive results; ? = inconclusive; nt = not tested or not shown; & = joins results of further samples; [ ] = dose if it differs, or a comment. Compounds as they come (roughly 1% active in at least one column).

SMILES	TRPML1 ag	TRPML1 inh	D2 agonist	Six1-Eya2 inh	PINK1 expr mod	D2 potentiator
COc1ccc(C2(C)NC(=O)N(CC(=O)NCc3ccccc3F)C2=O)cc1 (stereo unspecified)	0.3	-8.3	4.0	9.7	2.6%	9.6
CS(=O)(=O)N(CC(=O)N1CCc2ccccc2C1)c1ccccc1F	3.4	16.2	-4.7	6.7	3.8%	-3.4
COc1ccc(C2C(C(=O)c3sc(C)nc3C)=C(O)C(=O)N2CCCn2ccnc2)cc1 (stereo unspecified)	1.3	-11.6	-2.2	-0.9	-0.7%	-7.1
CS(=O)(=O)N1CCN(C(=O)Cc2ccc(Br)cc2)CC1	0.1	-18.5	1.2	-0.7	-0.4%	-0.9
CC(CCc1ccccc1)NCC(O)COc1ccccc1 (stereo unspecified)	0.8	0.5	5.0	5.5	5.3%	-8.7
Cc1nnc2sc(-c3ccc(NC(=O)c4ccc(-c5ccc(Cl)cc5Cl)o4)cc3)nn12	-0.9	16.4	-2.1	-1.2	5.0%	1.3
Cc1ccc(S(=O)(=O)c2cc3ccc(O)cc3oc2=O)cc1C	3.5	-1.1	9.7	4.7	1.0%	0.6
C=CCn1c(SCC(=O)Nc2cc(C)on2)nnc1C1COc2ccccc2O1 (stereo unspecified)	-0.1	7.0	2.1	-4.0	-0.2%	-4.3
Cc1ccc(S(=O)(=O)N2C[C@]3(O)C[C@@H]4C(=O)N(c5ccccc5)C(=O)[C@@H]4C[C@]3(OC(=O)NC3CCCC3)C2)cc1	0.6	-9.5	-6.9	0.8	6.4%	-2.2
CCCCOc1ccc(C(C)NC(=O)CCS(=O)(=O)Cc2ccc(Cl)cc2)cc1 (stereo unspecified)	1.0	-7.5	-2.9	30.7	5.0%	-2.7
CNC(=S)N(Cc1ccc(OC)cc1)C1CC(=O)N(c2ccc(OC)cc2)C1=O (stereo unspecified)	0.8	-9.0	-0.6	10.6	11.6%	-2.8
CC(=O)n1cc([C@H]2C=C(C(=O)N3CCN(Cc4ccc5c(c4)OCO5)CC3)O[C@@H](OCCCCO)C2)c2ccccc21	-0.9	-10.3	3.4	-13.6	-1.8%	-17.7
CC1CC(C)CN(C(=O)CNS(=O)(=O)c2ccc(Br)s2)C1 (stereo unspecified)	0.1	2.5	-2.6	1.2	nt	5.3
Cn1cc(S(=O)(=O)c2ccccc2)c(=O)c2cc(F)c(N3CCOCC3)cc21	-0.3&0.5	22.7&19.9	-6.5	-6.5	1.6%&-0.8%	-4.4
COc1cccc(CNC(=O)CCC2CCCN(C(=O)c3cc(C4CC4)[nH]n3)C2)c1 (stereo unspecified)	1.7	-23.1	0.5	18.0	2.4%	2.1
CC(C)OC(=O)c1c(NC(=O)c2cc3nc(-c4ccccc4)cc(C(F)(F)F)n3n2)sc2c1CCCC2	-0.7	-18.5	nt	nt	3.8%	nt
COc1ccc(/C=C2\SC(=O)N(CC(=O)NC3CCS(=O)(=O)C3)C2=O)cc1 (stereo unspecified)	-0.5	7.2	-3.1	-7.8	0.7%	-11.6
Cc1ccc(C(=O)NCC(=O)N(C)Cc2ccc(Cl)cc2Cl)s1	-0.6	3.3	-4.6	-7.4	0.6%	-11.5
Cc1cc(C)nc(-n2cc(C(=O)c3cc(F)ccc3O)cn2)n1	-0.4	-13.0	-1.5	7.8	-1.4%	-1.9
COc1cccc(NC(=O)COC(=O)C2CC3CCCC(C2)C3=O)c1 (stereo unspecified)	0.4	-3.3	-2.0	2.2	1.8%	-0.6
CS(=O)(=O)N(CC(=O)NCCSCc1ccccc1Cl)c1ccc(F)cc1	nt	nt	-2.0	3.6	-1.1%	-16.8
COc1cc(NC(=O)C2(C)CCCN2C(=O)C(C)C)cc(OC)c1OC (stereo unspecified)	-0.3	1.7	-1.2	1.8	1.7%	-6.7
O=C(NCCNc1ccc([N+](=O)[O-])cc1)c1ccccc1Br	-0.4	-4.2	-0.4	-12.5	nt	-4.8
COc1ccccc1S(=O)(=O)Cc1ccc(C(=O)N2CCN(c3ccccc3)CC2)o1	0.6	8.4	-1.0	-17.6	-0.8%	-21.6
CC(C)CN(C(=O)c1cc2ccccc2o1)c1c(N)n(CC(C)C)c(=O)[nH]c1=O	1.2	-7.1	1.6	3.7	7.2%	25.8

Of the compounds above, 2 have an NH in an aromatic ring.
SMILES	TRPML1 ag	TRPML1 inh	D2 agonist	Six1-Eya2 inh	PINK1 expr mod	D2 potentiator
COc1cccc(CNC(=O)CCC2CCCN(C(=O)c3cc(C4CC4)[nH]n3)C2)c1 (stereo unspecified)	1.7	-23.1	0.5	18.0	2.4%	2.1
CC(C)CN(C(=O)c1cc2ccccc2o1)c1c(N)n(CC(C)C)c(=O)[nH]c1=O	1.2	-7.1	1.6	3.7	7.2%	25.8

Additional structures:
SMILES	TRPML1 ag	TRPML1 inh	D2 agonist	Six1-Eya2 inh	PINK1 expr mod	D2 potentiator
CCOc1ccc2c(c1)N(C(=O)CN1C(=O)CCC1=O)C(C)(C)C=C2C	1.0	14.8	-3.1	0.2	-3.0%	-13.5
C[C@@H]1CN([C@H](C)CO)C(=O)CCCn2nncc2CO[C@@H]1CN(C)S(=O)(=O)c1cccc(F)c1	0.5	-3.1	0.1	5.1	0.9%	-1.0
C/C=C/c1c(F)c(F)c(Oc2ccc(C(=O)O)cc2)c(F)c1F	2.2	2.2	-3.4	-0.5	1.8%[38.3 µM]	4.8
O=S(=O)(NCCSCc1ccc(Cl)c(Cl)c1)c1ccc2c(c1)OCCO2	3.3	12.3	-2.1	?	2.8%	-21.8
COc1cc(SC)ccc1C(=O)NCCCOC(C)C	0.0	14.1	-2.9	0.3	3.6%[38.3 µM]	-9.0
O=C(Nc1sc2c(c1C(=O)O)CCCCC2)c1cccnc1	nt	nt	0.0	11.6	-0.6%	-6.7
CCOC(=O)Cn1cnc(C)c1	0.8	7.4	-2.9	-6.5	2.8%	9.0
COc1cc(NCc2ccccc2)c2ncn(C(C)C)c2c1	-1.0	-9.8	4.0	-24.7	0.3%	-6.0
O=C(CC1C(=O)NCCN1Cc1cccc(Oc2ccccc2)c1)NCC1CCOCC1 (stereo unspecified)	0.3	43.1	-6.4	-5.7	1.8%	-13.0
CC(C)CCc1noc(CN(CC2CCC2)CC2CCCO2)n1 (stereo unspecified)	nt	nt	-2.1	3.4	7.7%	-9.7
O=C(Nc1nnc(C(F)(F)F)s1)c1cccnc1	2.3	54.1	1.6	4.4	0.0%[38.3 µM]	-8.1
CC[N+](CC)(CC)CCC(O)(c1ccccc1)C1CCCCC1 (stereo unspecified)	1.0	-3.9	-2.1	6.4	2.0%	-3.8
CCOC(=O)c1nc(N)c(=O)n(-c2ccccc2)n1	0.5	8.3	-0.9	1.6	-1.0%	-14.0
CCOC(=O)c1c(NC(=O)CN2CCCCC2)sc2c1CCC(C=O)=C2Cl	-0.4	-15.6	-0.2	-14.1	2.1%	-11.5
O=C(N/N=C\c1cc(Br)c(Br)o1)C1COc2ccccc2O1 (stereo unspecified)	0.9	-7.0	-0.1	-13.2	6.5%	-4.8
O=S(=O)(c1ccc(Cl)cc1)N1CCCN(c2ccc(C(F)(F)F)cn2)CC1	0.2	36.3	3.8	-15.1	2.0%	-7.4
COc1cc(C(=O)Nc2ccccc2N2CCOCC2)ccc1OCc1c(C)noc1C	0.4	3.8	0.5	3.7	-0.4%	-0.5
Nn1cnnc1SCC(=O)N1CCc2ccccc2C1	0.2	3.4	-5.3	11.6	-0.9%	-6.0
CC(C)n1cnnc1SCC(=O)Nc1cccnc1Cl	-0.1	-7.1	-1.1	8.9	-0.2%	1.3
Oc1cccc(C2c3[nH]c4ccccc4c3CCN2Cc2ccc3c(c2)CCO3)c1 (stereo unspecified)	-0.2	24.1	-6.1	-12.3	0.0%	-14.6
COc1cccc(C(O)c2ncc(-c3cccc(F)c3)[nH]2)c1 (stereo unspecified)	-0.8	nt	2.2	2.7	0.6%	-10.1
O=C(Cn1ccc2ccccc2c1=O)NCCC(=O)N1CCN(C(=O)c2ccco2)CC1	0.1	3.1	-1.6	6.3	10.7%[38.3 µM]	-5.3
COc1ccc(N2CCN(C(=O)CCC(=O)N3CCOc4ccc(Cl)cc43)CC2)cc1	0.4	-8.4	-2.5	-20.5	2.1%	-5.6
O=C(c1sccc1-c1ccccc1)N1CCN(S(=O)(=O)c2ccccc2)CC1	0.8	-13.2	-1.7	0.2	1.9%	-0.7
CCOc1cc(N2CCOCC2)c(OCC)cc1NC(=O)COC(=O)c1ccc(OC)c([N+](=O)[O-])c1	0.9	-0.9	1.1	-8.1	7.7%	-5.1

Continued.
SMILES	TRPML1 ag	TRPML1 inh	D2 agonist	Six1-Eya2 inh	PINK1 expr mod	D2 potentiator
CCN1CCN(c2cc(C)c3cc(NC(=S)N4CC(C)CC(C)C4)ccc3n2)CC1 (stereo unspecified)	1.0	-14.6	3.6	-10.1	8.9%	-8.8
Cn1c(=O)oc2cc(C(=O)c3ccccc3)ccc21	0.9	-9.9	-2.5	-3.0	-0.2%	-18.9
O=C(Nc1cc(S(=O)(=O)N2CCOCC2)ccc1N1CCOCC1)c1cnccn1	-1.4	0.5	-4.5	2.0	-0.2%	3.0
Cc1ccc2nc(-c3cccc(NC(=O)CSc4ccc(Cl)cc4)c3)oc2c1	0.4	8.5	nt	nt	-0.1%	nt
Cc1cc(C)c2c(=O)[nH]n(C3CCCCCC3)c2n1	-0.8	26.9	-0.6	-2.3	0.3%	-3.0
COC(=O)c1cc(C)sc1NC(=S)N1CCN(CCc2ccccc2)CC1	-0.6	-14.0	-3.2	2.3	0.5%	-8.8
Cc1onc(-c2ccccc2)c1C(=O)N/N=C/c1ccc(O)c([N+](=O)[O-])c1	-0.6	1.8	-7.8	-1.3	-0.2%	4.3
COc1ccc(C(=O)Nc2c(C)csc2C(=O)O)cc1	0.3	10.3	-3.0	-3.7	1.9%	-6.0
CC(=O)c1ccc(Nc2nc(C(N)CC(C)C)cs2)cc1 (stereo unspecified)	-0.2	nt	-2.9	-2.5	0.1%	-11.5
COC(=O)c1ccc(N2C(=O)Cc3cc(OC)c(OC)cc3C2c2ccc(F)cc2)cc1 (stereo unspecified)	-1.5	23.8	nt	nt	0.8%	nt
O=C(/C=C/c1ccccc1)N1CCN(Cc2cc(=O)n3nc(-c4ccccc4)sc3n2)CC1	-0.1	-10.1	nt	nt	2.9%	nt
O=C(Nc1ccc2c(c1)OCO2)C1CC1(Cl)Cl (stereo unspecified)	-0.2	-2.8	-3.2	1.6	-1.1%	-2.2
CCc1nc2c(OCC3CCCCC3)cccn2c1N(C=O)Cc1ccc(OC)cc1	-0.5	nt	1.2	-8.1	19.0%	-1.6
